# NPYLR7 ag = mosquito NPYLR7 agonism; activation, % at 10 µM; HEK293T NPYLR7/Galpha15, GCaMP6s calcium fluorescence; 0.15% of 270,000 active; in the data active = activation above about 40%;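 note: 0% = vehicle and 100% = reference agonist at the receptor; some compounds past the cut are filed as inactive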
# NPYLR7 ag max-min = also measured in NPYLR7 ag; calls as there; activation, %; measured here: Max-Min RFU normalised activation; some inactives read as strong as hits;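 span of the calcium signal over five minutes; 0% = vehicle and 100% = native peptide agonist; compound fluorescence can raise it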
# The depositor's hits bear a star; & = joins results of further samples. This is a subset; rates above refer to the full screens.
SMILES,NPYLR7 ag,NPYLR7 ag max-min
Cn1c(-c2ccncc2)nc2cc(C(=O)NCc3ccccc3F)cc(NC(=O)C3CCC3)c21,30,14
COc1nc2ccccc2cc1-c1csc(C(N)=O)c1,1,0
COC(=O)N1CCC(NCc2c(C)c(C#N)n3ccccc23)CC1,1&2,0&1
COc1ccc(CCOc2nc(-c3ccc(C(F)(F)F)cc3)n(-c3cccc(NC(=O)c4cccc(OC)c4)c3)n2)cc1,17,13
COc1cccc(C(=O)N(CCCCN2C(=O)c3ccccc3C2=O)c2ccc(C)cc2)c1,-1,-4
Cn1cc(NC(=O)c2cccc(Cl)c2)c(=O)n(C)c1=O,-12,-12
Cc1ccc(CNC(=O)CCOc2ccc(Cl)cc2)cn1,20,21
CC(=O)Nc1ccc(CN2CCN(CC3CCCCC3)C(CCO)C2)cc1 (stereo not drawn),11,8
COc1cccc2ccc(CN3CCN(Cc4ccsc4)C(CCO)C3)nc12 (stereo not drawn),10,6
COc1ccc(Br)cc1C1c2cc3c(cc2OC(=N)C1C#N)OCO3 (stereo not drawn),4,2
CC(CC(=O)Nc1ccccc1C(C)C)NCCc1ccc(F)cc1 (stereo not drawn),4,4
Cc1ccc(CN(Cc2ccco2)CC(O)Cc2ccccc2)s1 (stereo not drawn),0,6
Cc1cnc(C)c(N2CCCC(CO)(Cc3cccc(Cl)c3)C2)n1 (stereo not drawn),13,9
CC1CCN(C(=O)CC2CSc3nc4c(c(=O)n32)CCC4)CC1 (stereo not drawn),-2,-2
COC(=O)C(C)n1cnc2c(nnn2-c2cccc(Cl)c2)c1=O (stereo not drawn),8,9
C/C=C(\C)CN1CCOC2(COCCN(C(=O)c3cccc(OC)c3)C2)C1 (stereo not drawn),8,5
Cc1nn(C)c(Cl)c1CNC1CCN(c2ccccc2)CC1,14,25
Cc1ccc(C(CNC(=O)c2ccc3c(c2)NC(=O)CN3C)N(C)C)cc1 (stereo not drawn),12,7
Cc1c(CN2CC[C@@H](N3CCN(C)CC3)[C@H](O)C2)[nH]c2c(Cl)cccc12,-6,-9
COc1ccc(S(=O)(=O)NCC2CCCN(Cc3cn[nH]c3C3CCCCC3)C2)cc1 (stereo not drawn),0,-1
CC(C)CN(Cc1cc(Cl)ccc1OS(C)(=O)=O)C(=O)C1CCC1,22,25
CN1CCN(C(=O)c2nn(-c3ccc(F)cc3)c(=O)n(Cc3ccccc3F)c2=O)CC1,12,11
O=C(O)CC1Sc2ccccc2NC1=O (stereo not drawn),1,8
FC(F)(F)c1ccccc1-c1nc(N2CCN(c3ncccn3)CC2)c2ccccc2n1,5,11
O=C1C(=Cc2ccco2)SC(=S)N1CC1CCCO1 (stereo not drawn),-6,-16

# Five entries from above, with values under each structure:
# Each structure is followed by: NPYLR7 ag, NPYLR7 ag max-min
Cc1ccc(CNC(=O)CCOc2ccc(Cl)cc2)cn1
  20, 21
C/C=C(\C)CN1CCOC2(COCCN(C(=O)c3cccc(OC)c3)C2)C1 (stereo not drawn)
  8, 5
Cc1nn(C)c(Cl)c1CNC1CCN(c2ccccc2)CC1
  14, 25
CC(C)CN(Cc1cc(Cl)ccc1OS(C)(=O)=O)C(=O)C1CCC1
  22, 25
COc1cccc(C(=O)N(CCCCN2C(=O)c3ccccc3C2=O)c2ccc(C)cc2)c1
  -1, -4

# Retrieved by structure from the list above (6):
SMILES,NPYLR7 ag,NPYLR7 ag max-min
COc1ccc(Br)cc1C1c2cc3c(cc2OC(=N)C1C#N)OCO3 (stereo not drawn),4,2
COC(=O)C(C)n1cnc2c(nnn2-c2cccc(Cl)c2)c1=O (stereo not drawn),8,9
COc1ccc(CCOc2nc(-c3ccc(C(F)(F)F)cc3)n(-c3cccc(NC(=O)c4cccc(OC)c4)c3)n2)cc1,17,13
Cn1cc(NC(=O)c2cccc(Cl)c2)c(=O)n(C)c1=O,-12,-12
C/C=C(\C)CN1CCOC2(COCCN(C(=O)c3cccc(OC)c3)C2)C1 (stereo not drawn),8,5
Cc1c(CN2CC[C@@H](N3CCN(C)CC3)[C@H](O)C2)[nH]c2c(Cl)cccc12,-6,-9

# Additional records follow:
SMILES,NPYLR7 ag,NPYLR7 ag max-min
CCn1cc(C(CC(=O)NCc2cccnc2)c2cc(OC)cc(OC)c2)c2ccccc21 (stereo not drawn),4,14
CNC(=O)c1nnc2n1CCN(Cc1cccc(OC)c1F)C2,-1,-3
COc1ccc(CNC(=O)c2cccnc2N2CCN(C(=O)c3cc(C)nn3C(C)(C)C)CC2)cc1,-1,-14
CN1CCC(N(C)C(=O)c2ccc(C(=O)NC(C)(C)C)cc2)CC1,11,6
COc1ccc(-c2nc(-c3sccc3C)sc2C)cc1,20,14
CCNc1nc(=S)[nH]c2ccccc12,1,6
COc1ccccc1-c1ccc(C(C)NC(=O)c2n[nH]c(=O)[nH]2)cc1 (stereo not drawn),0,-1
CN(C)C(=O)CSc1ncnc2sccc12,-1,0
CCO[C@H]1COC[C@@H]1NC(=O)c1cnn2ccn(C)c12,0&7,-1&4
Cc1cccnc1NC(=O)c1ccc(=O)n(Cc2ccc(F)cc2)c1,13,5
O=C(/C=C/c1ccc2nccnc2c1)c1ccc[nH]1,-5,-5
COCC1(C(=O)N(Cc2c(C)nn(C)c2C)C(C)C)CCC1,-1,-5
CS(=O)(=O)NC1CCCN(C(=O)NCC2(c3ccccc3)CC2)C1 (stereo not drawn),9,10
Cc1cc(CSCc2csc(CS(C)(=O)=O)n2)no1,10,8
COCCCN(CC(=O)N(CCc1c[nH]c2ccccc12)Cc1ccc(F)cc1)C(=O)c1ccc2c(c1)OCO2,10,8
CC(N)=C(C#N)C(=O)Cn1nc(C)c([N+](=O)[O-])c1C,-3,-5
O=C(c1cc2n(n1)CCN(Cc1ccccc1Cl)C2=O)N1CCN(c2ccccc2F)CC1,9,14
CCCCc1nc(N2CCN(C(=O)Cc3ccc(F)cc3)CC2)c2c(-c3ccc4ccccc4c3)noc2n1,11,1
CCOC(=O)CN(C(=O)C(C)c1c(C)noc1C)C1CCCCC1 (stereo not drawn),7,815
Fc1ccc(N2CCCN(Cc3ccc4nonc4c3)CC2)cc1,3,1
O=C1C2C3C=CC(C4CC34)C2C(=O)N1c1cccc([N+](=O)[O-])c1 (stereo not drawn),17,11
Cc1nnc(NC(=O)c2ccc(Cl)cc2Cl)s1,3,3
Cc1cc(C)nc(SCc2c(C(=O)N3CCc4ccccc4C3)nnn2-c2ccccc2)n1,-2,-6
O=C(O)c1ccc2c(c1)CCN2C(=O)c1cccc(F)c1,0,-3
COc1ccc(Cl)cc1NC(=O)CCC1CCCN(C2Cc3ccccc3C2)C1 (stereo not drawn),0,-7
# (next part)
SMILES,NPYLR7 ag,NPYLR7 ag max-min
Cn1c(C2CCCN(S(C)(=O)=O)C2)nn(CC(=O)N2CCOCC2)c1=O (stereo not drawn),0,8
S=c1nc(-c2cccs2)[nH]c2ccccc12,27,55
Cc1nc(N2CCC(C(N)=O)CC2)nc2c1C(=O)CC(c1ccco1)C2 (stereo not drawn),7,9
COCCNC(=O)[C@@]1(OCc2ccccc2C)CC(OCc2ccc(C)cc2)[C@H](O)[C@H](O)C1 (stereo partly drawn),16,25
COc1cc(NC(=O)NCC(c2ccc(N(C)C)cc2)N2CCc3ccccc32)cc(OC)c1OC (stereo not drawn),-2,7
CC1=CC(=O)N(c2cc(C)ccc2C)C1c1ccc(Cl)cc1 (stereo not drawn),1,-1
CCOC(=O)N1CCN(CC(=O)N2N=C(c3cccc(OC)c3)CC2c2ccccc2Cl)CC1 (stereo not drawn),17,9
Cc1ccc(-n2nc(C(=O)N3CCOCC3)c(=O)n(C(C)c3ccccc3)c2=O)cc1F (stereo not drawn),-5,-7
Cn1nc(-c2ccccc2)c(-c2ccccc2)c(C(=O)N2CCCC2)c1=O,-3,33
CC(Sc1nnc(N)s1)C(=O)NC(C)C1CC2CCC1C2 (stereo not drawn),2,0
CCc1ccccc1Nc1nc(N)nc(CN2CCCCCCC2)n1,0,-1
COCCn1cnnc1CN(C)C(=O)c1ccc2c(c1)CCO2,4,3
O=C1C(C(c2ccccc2Cl)N2CCC(O)CC2)Sc2nc(-c3ccco3)nn21 (stereo not drawn),-6,-10
COc1cccc(OCCc2c(C)n[nH]c2C)c1,6,2
C1CCC(C2CCCN2Cc2nnnn2C2CC2)CC1 (stereo not drawn),2,1
C=CCOc1c(OC)ccc2c1CN(CC=C)C(=O)CCN2[C@@H]1CCC[C@H]1O,1,8
O=S(=O)(/C=C/c1ccc(Cl)cc1)N(Cc1ccccn1)C1CC1,1,8
C=c1cc(C)n(CC(=O)Nc2cc(OC)ccc2OC)c(=O)c1=C1N=C(c2ccccc2)NO1,-3,-10
Cc1ccc(-n2nc(C(=O)NCCc3ccccn3)c(=O)n(Cc3ccccc3Cl)c2=O)cc1Cl,17,20
COc1ccc(C(=O)CSc2nccn(-c3cccc4ccccc34)c2=O)cc1OC,-16,-20
COCCN(CC(=O)Nc1nc(CC(=O)N2CCC(C(N)=O)CC2)cs1)C(=O)c1ccc(OC)cc1,15,9
N#CCSCC(=O)NCc1cccc(NC(=O)c2cccc(F)c2)c1,4,1
O=C(CCS(=O)(=O)c1ccccc1F)Nc1ccc(I)cc1,3,-1
CS(=O)(=O)Nc1cccc(NS(=O)(=O)c2ccc(F)cc2Cl)c1,-1,-5
COc1ccc(-c2nc3ccc(C)cn3c2NC(=O)C2CCCCC2)cc1OC,-4,-2
# The list continues:
SMILES,NPYLR7 ag,NPYLR7 ag max-min
CC1C2=C(CC(C)(C)CC2=O)OC(=N)C1C#N (stereo not drawn),2&2,2&1
Cc1ccn2c(C(=O)NC3CC(=O)N(Cc4cccc(F)c4)C3)nnc2n1 (stereo not drawn),8,1
Cc1cccc(CO[C@]2(C(=O)NCCN3CCOCC3)CC(OCc3ccc(F)cc3)[C@@H]3OC(C)(C)O[C@@H]3C2)c1 (stereo partly drawn),4,13
CCN(CC(=O)Nc1cc(C(C)(C)C)nn1-c1ccccc1Cl)S(=O)(=O)c1ccccc1,11,-1
CCOC(=O)c1nn(CCCc2ccccc2)c2c1CN(C(=O)Cn1nc3ccccc3n1)CC2,6,-4
N#CC(C#N)=Cc1cn(CCC(=O)O)nc1-c1ccc(Cl)cc1,-10,-11
CCc1ccc2nc(N(CCCN(C)C)C(=O)c3ccco3)sc2c1,3,2
O=C(O)Cc1noc2ccccc12,10,7
O=S(=O)(CC1CC1)c1ncc(CN2CCSCC2)n1CC1CCCCC1,7,11
O=C(Nc1cccc(C(=O)N2CCN(c3cn[nH]c(=O)c3)CC2)c1)C1CCCC1,8,4
CCCc1cc(OC)cc(O)c1-c1nc(N)nc(C)c1-c1ccc2c(c1)OCCO2,21,29
CCNc1nc(C)c(C(=O)N(C)C(C)c2cccs2)s1 (stereo not drawn),-5,-7
O=C(Nc1cc(Cl)cc(Br)c1O)c1cnc[nH]1,3,2
CC(C)NC(=O)c1cc(-c2ccc(F)cc2)n2nc(-c3ccccc3)cc2n1,-16,-11
COc1ccc(Nc2nc(-c3cccnc3)nc3ccccc23)cc1,0,9
CN1CCC(NCCN(C)S(C)(=O)=O)CC1,-5,-8
Cc1nn(CCC(C)C)c2c1C(CCc1ccccc1)CC(=O)N2 (stereo not drawn),4,4
Cc1cc(Oc2ccc(Cl)cc2)nc(SCc2cccc(Cl)c2)n1,1,0
CCCn1nccc1NC(=O)COC(=O)c1ccc(OC)nc1,7,7
CCCCNCC(=O)Nc1sc2c(c1C(N)=O)CCC2,1,-4
O=C(COc1c(F)c(F)c(F)c(F)c1F)N1CCN(c2nccc(-c3ccco3)n2)CC1,21,16
CC1(C(=O)NS(=O)(=O)c2ccc(Cl)cc2)CCN1C(=O)c1ccc(C2CCCCC2)cc1 (stereo not drawn),3,2
O=C(CN1CN(c2ccccc2)C2(CCN(C(=O)C(c3ccccc3)c3ccccc3)CC2)C1=O)NCc1cccc(C(F)(F)F)c1,22,18
O=C1NC(=S)N(c2ccccc2Cl)C12CCCCC2,11,11
Cc1ccc2c(=O)c(C(=O)NC3CCCc4occc43)cn(C)c2n1 (stereo not drawn),6,6
# Additional results follow:
SMILES,NPYLR7 ag,NPYLR7 ag max-min
N#CCCN(C(=O)CSc1nnc2n1CCCCC2)c1cccc(Cl)c1,0,-4
Cc1ccccc1OCC(O)CN(Cc1ccc2c(c1)OCO2)Cc1cccs1 (stereo not drawn),1,7
CCOC(=O)C1(Cc2ccccc2F)CCCN(Cc2cnc(SC)nc2)C1 (stereo not drawn),5,3
N#CC1(c2ccccc2)CCN(C(=O)C2CC=CCC2C(=O)NC2CCN(Cc3ccccc3)C2)CC1 (stereo not drawn),-7,-12
S=C(NCCCN1CCOCC1)NN=Cc1ccsc1,5,4
N#Cc1ccc(C(=O)N(CC(N)=O)c2ccccc2)cc1,8,9
OCCCn1cnc(-c2ccccc2)c1-c1cccn1-c1ccccn1,12,10
CCN1CCN(C(c2ccc(OC)cc2)C2Sc3nc(C)nn3C2=O)CC1 (stereo not drawn),1,-2
C=CCn1c(N)c(S(=O)(=O)c2ccccc2)c2nc3ccccc3nc21,-5,-8
N#CCC(=O)Nc1ccc(C(=O)Nc2cccc(Cl)c2)cc1,-5,-5
CN1CCC(C)(CNC(=O)c2ccc(Cn3cccn3)o2)C1 (stereo not drawn),20,15
CC(C)Cn1c(=O)[nH]c(=O)c2c1nc1n2CCCCC1,-15&2,-19&0
NC(=O)Nc1cccc(CNC(=O)CCc2ccccc2Br)c1,9,6
CN(CCNC(=O)C1(c2ccccc2F)CC1)S(C)(=O)=O,-4,-5
Cc1ccc(C(=O)N2C(C(=O)NCc3ccncc3)COC23CCN(C(=O)Cc2cccs2)CC3)cc1 (stereo not drawn),0,17
Cc1nc(C)c(CCNc2ccc(S(N)(=O)=O)cc2C#N)s1,5,3
CCOc1ccc(NC(=O)NC(C)(C)Cc2c[nH]c3ccccc23)cc1,5,4
Cc1[nH]n(-c2nc(-c3ccccc3)cs2)c(=O)c1N=Nc1ccc(F)cc1,-5,-7

# Bioassay records (PubChem BioAssay)
